# ALR H2O2 inh = blocks human ALR sulfhydryl oxidase activity; P55789; purified ALR, DTT oxidation, H2O2 HRP-luminol luminescence; inhibition, % (test concentration not listed); hit rate 3.8% among 290,000; AID 485317;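 active = mean and each replicate at 75% or more; inconclusive = only one of the two met; inactive = neither met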;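 note: stock transfer was 7.5 nL into about 7.5 µL; 0% = neutral wells and 100% = wells with inactivated enzyme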
# Target sequence (P55789 whole entry, looked up): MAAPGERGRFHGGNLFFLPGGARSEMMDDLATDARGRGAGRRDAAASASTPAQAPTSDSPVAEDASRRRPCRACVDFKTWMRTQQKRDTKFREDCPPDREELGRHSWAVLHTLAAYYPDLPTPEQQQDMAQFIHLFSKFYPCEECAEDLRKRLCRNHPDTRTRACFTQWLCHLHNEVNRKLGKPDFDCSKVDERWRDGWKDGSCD
# Beta cell apopt = blocks beta cell apoptosis; INS-1E cytokine-induced death, ATP luminescence, 48 h; percent of positive-control rescue, neutral wells zero; protection from apoptosis, % (test concentration not listed); hit rate 0.8% among 300,000; AID 435005;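 active = all replicates at 75% or more, or half of them and the mean; inconclusive = half reach 75% but not the mean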;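 note: 0% = cytokine-treated negative control wells and 100% = positive control rescue; higher means more ATP so stronger rescue from cytokine killing; wells of about 40 µL received 100 nL stock; the first replicate is given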
# T cruzi inh = blocks replication of Trypanosoma cruzi; T. cruzi beta-gal in NIH3T3, luminescence, 90 h; inhibition, % (no concentration beside the values); hit rate 1.4% among 300,000; AID 1885;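 active = mean inhibition across valid replicates above about 55%, limit read from the data; inconclusive = mean below that limit but half or more replicates reach it; inactive = mean below it, under half of replicates reach it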;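 note: signal also drops with host cell toxicity which is not excluded here; 0% = plate median of DMSO wells and 100% = zero luminescence signal; higher percent means less beta-gal luminescence so fewer parasites; stock transfer was 50 nL into about 50 µL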
# FGF22 binding = shifts melting point of recombinant human FGF22; recombinant FGF22 thermal shift, SYPRO orange fluorescence; percent of sucrose octasulfate shift, DMSO zero; hit rate 1.5% among 340,000; AID 651658; calls only at 9.99 µM;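 active = melting point raised past a set limit in the mean and every replicate; inconclusive = no clear call; three in four hits are not shown here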
# Target sequence (Q9HCT0 whole entry, looked up): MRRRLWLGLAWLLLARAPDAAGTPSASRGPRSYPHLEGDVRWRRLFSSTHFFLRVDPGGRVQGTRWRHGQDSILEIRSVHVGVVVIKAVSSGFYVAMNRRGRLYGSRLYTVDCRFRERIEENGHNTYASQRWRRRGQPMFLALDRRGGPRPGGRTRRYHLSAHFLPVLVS
# MLL AF4-AF9 inh = MLL-AF4/AF9 protein interaction inhibition. P42568. AlphaScreen, biotin-AF4 peptide binding to FLAG-AF9. inhibition, % at 10 µM. hit rate 0.47% among 350,000. AID 651704;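 active = every replicate reaching a set inhibition limit, whatever the replicate mean, cut at about 25% in these data; inconclusive = mean inhibition reaches that limit but some replicates miss it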;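 note: 0% = plate neutral control median and 100% = total signal loss; the record names both 10 and 1 µM as test concentration; the first replicate is given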
# Target sequence (P42568 whole entry, looked up): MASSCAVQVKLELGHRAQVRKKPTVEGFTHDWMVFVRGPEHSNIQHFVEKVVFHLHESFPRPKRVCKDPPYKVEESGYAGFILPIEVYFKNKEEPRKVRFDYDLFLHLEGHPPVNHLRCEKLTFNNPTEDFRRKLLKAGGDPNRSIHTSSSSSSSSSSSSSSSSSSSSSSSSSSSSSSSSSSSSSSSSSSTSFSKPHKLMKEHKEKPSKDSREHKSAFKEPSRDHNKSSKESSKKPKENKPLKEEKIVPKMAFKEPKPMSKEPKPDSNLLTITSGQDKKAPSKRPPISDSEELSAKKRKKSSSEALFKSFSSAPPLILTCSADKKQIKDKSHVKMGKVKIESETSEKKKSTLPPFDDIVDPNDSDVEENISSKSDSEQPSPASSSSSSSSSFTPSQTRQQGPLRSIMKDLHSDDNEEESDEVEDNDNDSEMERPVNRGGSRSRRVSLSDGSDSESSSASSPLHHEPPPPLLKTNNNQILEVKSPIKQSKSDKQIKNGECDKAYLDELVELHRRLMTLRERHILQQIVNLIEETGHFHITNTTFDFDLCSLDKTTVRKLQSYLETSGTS
# RanGTP-Imp inh = inhibitors of RanGTP-importin-beta interaction, primary screen, biochemical, FRET, CFP-Ran, YFP-importin-beta, homogeneous; AID 2216; hit rate 1.1% among 300,000; cell-free CFP-Ran/YFP-importin-beta FRET ratio; inhibition, % (test concentration not listed);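 active = most replicates above 15%; inconclusive = exactly half above 15%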;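 note: 0% = DMSO wells and 100% = Ran loaded with GDP instead of GTP; wells of about 40 µL received 100 nL stock; the first replicate is given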
# Ecoli rRNA inh = selective bacterial rRNA inhibition in E. coli; E. coli WT GFP vs humanized-ribosome RFP mutants, fluorescence, 24 h; hits give low values; DMSO median 0, no signal -100; GFP signal change (wild-type ribosome), % (no concentration beside the values); hit rate 1.6% among 350,000;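 active = significant combined selectivity score with lowered wild-type GFP, culture density cut under 30%, mutant RFP and density less affected; inactive = any of these conditions unmet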; note: one replicate is shown; some compounds called inactive have numbers as strong as hits
# Calb FLC = affects C. albicans growth with fluconazole; C. albicans CaCi-2 (fluconazole-resistant clinical isolate) + fluconazole, Alamar Blue growth, 48 h; growth inhibition, % (no concentration beside the values); hit rate 0.57% among 300,000;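 active = most replicates above 75%; inconclusive = exactly half above 75%; inactive = most below 75%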;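 note: all wells also contain fluconazole at 8 µg/ml as a sub-toxic cotreatment; 0% = median of DMSO wells and 100% = median of geldanamycin control wells; wells of about 8 µL received 7.5 nL stock; the first replicate is given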
# Ecoli rRNA inh OD600 = second read-out of Ecoli rRNA inh, no call of its own (marks repeat the call); OD600 change, %; measured here: OD600 growth;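 optical density of the mix in the first replicate; 0 = DMSO median and -100 = no signal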
# Ecoli rRNA inh RFP = second read-out of Ecoli rRNA inh, no call of its own (marks repeat the call); RFP signal change, %; measured here: RFP humanized mutant strains;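 first replicate; 0 = DMSO median and -100 = no signal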
# An asterisk follows results filed as active; i = inactive; ? = inconclusive; . = not tested or not shown; & = joins results of further samples. These rows are one share of the data; rates above refer to the full screens.
SMILES,ALR H2O2 inh,Beta cell apopt,T cruzi inh,FGF22 binding,MLL AF4-AF9 inh,RanGTP-Imp inh,Ecoli rRNA inh,Ecoli rRNA inh OD600,Ecoli rRNA inh RFP,Calb FLC
COC(=O)C(C)SC1=N/C(=C/c2ccc(-n3cncn3)cc2)C(=O)N1 (stereo not given),.,2,-13,i,-1.8,4.1,10,5,-7.8,-2
Cc1ccc(N(C(=O)c2snc(C(N)=O)c2N)C(C(=O)NCCC(C)C)c2ccco2)cc1 (stereo not given),-9,-7,56*,i,1.9,-0.6,-4,-17,28,9
O=S(=O)(c1cccc(-c2csc(-c3ccccc3)n2)c1)N1CCOCC1,98*,4,29,.,.,-6.4,.,.,.,2
CCc1[nH]nc2c1C(C1C=CCCC1)C(C#N)=C(N)O2 (stereo not given),6,-3,-11,i,1.9,1.7,-12,-10,2.3,?
CCc1cc2c(NC(Cc3c[nH]c4ccccc34)C(=O)O)nc(C)nc2s1 (stereo not given),56,.,-3,i,3.1,-5.0,-28*,-7.6*,3.7*,6
Cc1ccc(S(=O)(=O)N2CCCC(c3nnc4n3-c3ccccc3SC4)C2)cc1 (stereo not given),-28,6,19,.,.,-1.7,.,.,.,-7
COc1ccc2c(c1OC)c(=O)n1c3ccc(OC(C)C(=O)NCCN4CCOCC4)cc3c3ccnc2c31 (stereo not given),-27,4,13,i,-0.9,3.6,17,-10,3.5,-2
O=C(c1cncc(Br)c1)N1CCN(c2ccc([N+](=O)[O-])cc2)CC1,8,-14,-8,i,-16,-1.7,-9,-15,0.2,16
COc1ccc(S(=O)(=O)Nc2cc(C(=O)NCCCN3CCOCC3)ccc2N2CCOCC2)cc1,-11,-4,-7,i,1.8,-3.1,6,1,2.9,12
CCn1c(SCC(=O)Nc2nnc(C)s2)nnc1C(C)NC(=O)c1ccccc1F (stereo not given),0,-4,-6,i,0.9,1.2,3,7,-0.6,-1
COc1ccc(S(=O)(=O)NC(Cc2cnc[nH]2)C(=O)O)cc1 (stereo not given),1,-15,-19,.,-2.0,7.5,.,.,.,4
COC(=O)c1ccccc1NC(=O)CN(c1ccc(C)cc1)S(C)(=O)=O,-3,-1,13,i,1.2,3.4,-22,-29,-1.6,3
CNC(=O)COC(=O)COc1ccc2c(C)cc(=O)oc2c1,-1,-8,0,i,0.0,2.8,19,31,10.0,25
Cc1nnsc1C(=O)NNS(=O)(=O)c1cc(C(F)(F)F)cc(C(F)(F)F)c1,33,-3,-9,i,0.6,-1.9,1,-2,3.0,7
Cc1ccc(CNc2oc(COc3ccccc3Cl)nc2C#N)cc1,0,-7,14,.,.,1.0,.,.,.,-17
Cc1nc(C)c(CCNC(=O)c2ccccc2Br)s1,.,1,1,.,.,1.5,.,.,.,6
O=C(Cn1cc([N+](=O)[O-])ccc1=O)N1CCc2ccccc21,-18,1,.,i,-1.8,.,.,.,.,.
CC(=O)Nc1ccc(NC(=O)C(=O)c2cn(CC(=O)N3CCCC3)c3ccccc23)cc1,-6,2,5,i,-1.0,6.4,16,15,0.3,4
CCN(C(=O)CN1C(=O)NC(c2ccccc2)(c2ccc(C)c(C)c2)C1=O)C1CCS(=O)(=O)C1 (stereo not given),-5,-1,.,i,0.3,.,-2,-4,3.4,.
CCOC(=O)c1c(NC2=NS(=O)(=O)c3ccccc32)sc2c1CCCCC2,-26,-2,26,i,-6.0,-5.7,10,10,5.4,41
COc1ccc(NC(C)=O)cc1NC(=O)CSc1nnc(-c2ccc(F)cc2)n1N,-4,-7,-10,.,.,-0.8,.,.,.,4
Cc1ccc(C(=O)Nc2nc(C)c(C)s2)o1,2,12,-4,.,.,2.6,.,.,.,0
COC(=O)C(Cc1ccccc1)NC(=O)COc1ccc(C(C)(C)C)cc1 (stereo not given),-1,-8,-3,.,.,1.3,.,.,.,3
Cc1ccc(C)c(S(=O)(=O)N2CCN(CC(=O)NC(=O)NCc3ccco3)CC2)c1,-4,-5,42,i,-0.9,-1.3,0,0,-1.3,30
CC(C)(C)[C@@H]1C=C(C(=O)O)O[C@H](OCc2ccc(CO)cc2)C1,-1,6,-20,i,-3.3&-2.5,1.3,0,2,11,-10
COc1ccc(N2CCN(c3cnc4ccccc4n3)CC2)cc1,33,.,-5,i,11,-4.3,-3,-1,-7.0,39
CCN(Cc1ccc(NC(C)=O)cc1)CC1CCCN(CCc2cccc(OC)c2)C1 (stereo not given),0,-2,?,i,4.8,2.0,11,7,1.1,-8
COC(=O)c1cc2c(N)c(C(=O)c3ccc(Cl)cc3)sc2nc1C(OC)OC,.,2,19,i,-1.4,0.0,20,9,2.2,5
O=C1c2ccccc2NC(c2ccccc2O)N1NS(=O)(=O)c1ccccc1 (stereo not given),-1,.,-7,i,-0.8,1.0,0,-7,-1.3,27
CCOC(=O)c1c(CN2CCC(C)CC2)oc2ccc(OC)cc12,1,7,7,.,.,-4.5,.,.,.,12
COc1ccc(-n2c3nc4ccccc4nc3c3c(=N)oc(C)nc32)cc1,12,-6,-12,.,.,6.8,.,.,.,-6
Cc1noc(C)c1C(=O)N1CCC(C(=O)c2ccccc2)CC1,.,6,-17,i,.,0.5,29,40,-3.8,-3
Cc1occc1C(=O)NNC1=CC(=O)CC(C)(C)C1,89*,-8,4,.,.,26*,.,.,.,-16
CC1=C(C(=O)OCc2ccccc2)C(c2ccccc2OC(F)F)NC(=O)N1 (stereo not given),-3,4,5,.,.,-3.5,.,.,.,16
COC/C=C/C1=CC2=CC(=O)C(C)(OC(=O)c3cnc4ccccc4n3)C(=O)C2=CN1C(CO)CO (stereo not given),.,-6,-25,i,.,1.9,2,16,7.0,10
CC(=O)c1c(COC(=O)c2ccco2)nc2ccccc2[n+]1[O-],.,-3,-12,.,.,0.8,.,.,.,3
O=c1[nH]c2ccccc2cc1CN(Cc1cccnc1)S(=O)(=O)c1ccc([N+](=O)[O-])cc1,-1,.,56*,i,0.0,-1.0,-21*,-3.1*,-0.9*,-4
Cc1cccc(C(=O)NCC(=O)Nc2ccncc2)c1,.,5,-18,i,-2.9,3.9,5,10,-1.6,4
CC(C)(Cc1ccc(O)cc1)NC(=O)SCc1ccccc1,19,4,-5,i,-8.6,6.0,-50,-72,-15,5
C[N+]1(CCn2ccc3ccccc32)CCCCC1,0,-1,-10,i,0.3,1.0,27,18,1.8,0
COc1ccc([C@H]2CC(=O)C=C(c3ccc4cc[nH]c4c3)C2)cc1,-5,-3,.,i,3.8,.,-2,-3,-8.9,.
NC(=O)CC(NC(=O)c1cccc(Br)c1)c1ccc(N2CCN(c3ccc(F)cc3)CC2)c([N+](=O)[O-])c1 (stereo not given),0,-11,-20,i,3.6,2.9,2,13,-1.3,-18
CCOC(=O)c1sc(NC(=O)C2CC(=O)N(c3ccc(OCC)cc3)C2)nc1C (stereo not given),.,-5,6,.,-1.1,1.0,0,-7,1.6,6
CCOC(=O)c1ccc(N2C(=O)C(O)=C(C(C)=O)C2c2ccccn2)cc1 (stereo not given),0,-12,1,.,.,?,.,.,.,-4
COc1ccc(NC(=O)CN2C(=O)COc3ccc(S(=O)(=O)N4CCOCC4)cc32)cc1Cl,-6,-5,-1,i,1.9,-5.7,4,-6,0.5,-8
CCOc1ccc(N2C(=O)C3C(c4ccccc4F)NN(C(=O)c4ccc(C)cc4)C3C2=O)cc1 (stereo not given),-22,-5,-8,i,-2.8,-0.4,7,7,0.8,-3
Cn1c(=O)[nH]c(=O)c2c1nc(N1CCN(CCO)CC1)n2Cc1ccccc1Cl,4,.,-15,i,-1.6,-0.2,-4,10,0.4,-3
c1ccc(-c2ccccc2-c2nc(-c3ccncc3)no2)cc1,-26,-3,30,.,.,1.2,.,.,.,-3
CCN1C(=O)[C@H]2[C@H]3[C@H](O)[C@H](O)C/C(=N\O[C@H](C)c4cn([C@H](CO)Cc5ccccc5)nn4)[C@@H]3CC[C@H]2C1=O,-3,-3,-4,.,.,-3.6,.,.,.,-1
Cc1cc(C(=O)NCCCC(=O)O)c(C)o1,-1,-5,0,.,.,-2.4,.,.,.,-8
COc1cc(/C=N/NC(=O)C(NC(=O)c2ccccc2)c2n[nH]c(=O)c3ccccc23)ccc1OCC(N)=O (stereo not given),-18,-9,0,i,2.3,0.3,1,-1,4.5,6
CC1(c2ccc(OC(F)F)cc2)NC(=O)N(CC(=O)Nc2ccc(S(N)(=O)=O)cc2)C1=O (stereo not given),.,1,2,i,0.6,8.4,9,13,4.4,-13
N#CCCN(C(=O)COC(=O)c1n[nH]c2ccccc12)c1ccccc1,.,-1,.,i,-6.7,.,6,5,1.9,.
Cc1ccc(C)c(C(=O)NCCN(C)C)c1,-5,-8,-10,.,.,0.4,.,.,.,-1
CC(=O)Nc1cccc(OCC(=O)NC(C)C(C)C)c1 (stereo not given),-1,-4,-10,.,.,3.1,.,.,.,-10
CC(=O)N1CCC(CCCC2CCN(C(C)=O)CC2)CC1,.,-2,2,i,-20,2.3,6,8,-5.2,-6
Cc1ccc(Cn2c(=N)c(C(=O)NC3CCCCC3)cc3c(=O)n4ccccc4nc32)cc1,1,14,14,i,0.2,161*,7,8,-1.1,41
Cc1cc(C)nc(SCC(=O)OCC(=O)Nc2nc3ccccc3s2)n1,-4,-1,-12,.,.,3.7,.,.,.,-32
Nc1ccc(Cl)c(NC(=O)c2cccs2)c1,-23,2,4,.,.,-1.8,1,-6,-1.8,15
Fc1ccccc1CSc1ncnc2sc3c(c12)CCCC3,.,1,18,i,-3.7,1.6,14,7,1.8,-6
# Remaining list, next part:
SMILES,ALR H2O2 inh,Beta cell apopt,T cruzi inh,FGF22 binding,MLL AF4-AF9 inh,RanGTP-Imp inh,Ecoli rRNA inh,Ecoli rRNA inh OD600,Ecoli rRNA inh RFP,Calb FLC
COc1ccc(N2CC(NC(=O)N3CCN(c4ccccc4)CC3)CC2=O)cc1 (stereo not given),97*,3,-6,i,-0.4,?,2,8,0.2,2
CS(=O)(=O)N(CC(=O)NCC1CCCO1)c1cc(Cl)c(Cl)cc1Cl (stereo not given),0,-7,17,i,0.1,2.8,9,6,2.5,5
Cc1cc2nnc(SC3CCCCN(C(=O)c4ccc(F)cc4)C3=O)n2c2ccccc12 (stereo not given),-7,8,3,.,.,4.0,.,.,.,5
Cc1cc(O)ccc1N/C=C(\C#N)c1nc2ccccc2o1,-6,-4,5,.,.,-2.7,.,.,.,-5
Cc1ccc(NC(=O)CCNS(=O)(=O)c2cccc3nonc23)cc1Cl,-3,4,-1,.,2.1,0.9,-36,-37,-2.6,7
Cc1cc(=O)n2[nH]c(-c3ccccc3Cl)cc2n1,-10,-2,4,.,.,-0.4,.,.,.,3

# Retrieved by structure from above (two):
SMILES,ALR H2O2 inh,Beta cell apopt,T cruzi inh,FGF22 binding,MLL AF4-AF9 inh,RanGTP-Imp inh,Ecoli rRNA inh,Ecoli rRNA inh OD600,Ecoli rRNA inh RFP,Calb FLC
Cc1cc(=O)n2[nH]c(-c3ccccc3Cl)cc2n1,-10,-2,4,.,.,-0.4,.,.,.,3
COc1ccc(N2CC(NC(=O)N3CCN(c4ccccc4)CC3)CC2=O)cc1 (stereo not given),97*,3,-6,i,-0.4,?,2,8,0.2,2

# Compound activity from PubChem BioAssay.
